Source: PubChem (ICCB-Longwood Screening Facility, Harvard Medical School)
fixLJ activator: activators of Burkholderia fixLJ two-component system. actives 0.3% (n = 29,000). B. multivorans fixK-promoter GFP reporter, 18 h; active compounds read high. AID 1918990. z-score (test concentration not listed);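 active means replicate mean overnight rise in green fluorescent reporter signal, 3 or more SD over negative controls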;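 further: score is relative to vehicle wells of the plate; 300 nL library stock went into each well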
Starred values were filed as active, the others as inactive. These rows are one share of the data. The share of hits here may be higher or lower than overall.

SMILES	fixLJ activator
COc1cc(NC(=O)c2cn(C3CCCC3)c(=O)c3c2c2ccccc2n3C)cc(OC)c1OC	-1.05
COC(=O)c1ccc(NC(=O)Cc2coc3cc(C)ccc23)cc1	0.05
Clc1ccc(-c2noc3ncnc(NC4CCCCC4)c23)cc1	-0.24
COc1ccc(C)cc1NC(=O)c1cc2c(=O)n3cccc(C)c3nc2s1	-2.93
COc1ccc(-n2c(=O)c3c4c(sc3n(Cc3cc(C)ccc3C)c2=O)CN(C(C)=O)CC4)c(OC)c1	-0.46
CCc1nc(C)c(CNC(=O)CCCc2nc(-c3cccnc3)no2)s1	-0.9
CCN1C(=O)c2ccccc2S(=O)c2ccc(C(=O)N3CCN(c4cccc(C)c4)C(C)C3)cc21 (stereo not drawn)	0.05
CCOC(=O)c1cccc(NC(=O)CCS(=O)(=O)c2ccc3c(c2)CCN3C(=O)CC)c1	0.57
O=C(CC1C(=O)N(c2ccccc2)C(=O)N1CCc1cccs1)Nc1ccc(Cl)cc1 (stereo not drawn)	-1.08
CCN(CC)c1ccc(NC(=O)C2CCCN(S(=O)(=O)c3ccc4c(c3)oc(=O)n4C)C2)c(C)c1 (stereo not drawn)	-3.76
CCOC(=O)c1[nH]c2c(c1Cc1ccccc1C)C(=O)CC(c1cc(OC)ccc1OC)C2 (stereo not drawn)	0.37
CCn1cc(CNC(=O)C2OCC(=O)NC2c2ccccc2Cl)c(C)n1 (stereo not drawn)	0.09
COCc1nc(CCc2c(C)nn(C)c2C)n(Cc2ccc(F)cc2)n1	0.55
CCOc1ccc2[nH]c(=O)c(-c3nccn3CC3CCOCC3)cc2c1	0.5
CC(=O)c1cccc(-n2c(CCC(=O)O)ccc2-c2ccccc2)c1	0.41
COc1ccc2c(C(=O)NCC3(C)COC3)cc(C)nc2c1	-3.48
CCOC(=O)c1cnc2c(C)cc(C)cc2c1Nc1ccc(N2CCOCC2)cc1	-0.2
O=C(NCCCc1ccccc1)c1nn(-c2ccccc2)nc1CO	-1.45
O=C1CC2(CCN(C(=O)c3ccoc3)CC2)OCCN1Cc1ccccc1	-0.22
CCOc1ccc(CN(CCc2ccc3c(c2)OCO3)Cc2cc(OC)cc(OC)c2)cc1	1.18

Overlap with the part before: six compounds, followed by the next part.
SMILES	fixLJ activator
CC(=O)c1cccc(-n2c(CCC(=O)O)ccc2-c2ccccc2)c1	0.41
COc1ccc2c(C(=O)NCC3(C)COC3)cc(C)nc2c1	-3.48
CCOC(=O)c1cnc2c(C)cc(C)cc2c1Nc1ccc(N2CCOCC2)cc1	-0.2
O=C(NCCCc1ccccc1)c1nn(-c2ccccc2)nc1CO	-1.45
O=C1CC2(CCN(C(=O)c3ccoc3)CC2)OCCN1Cc1ccccc1	-0.22
CCOc1ccc(CN(CCc2ccc3c(c2)OCO3)Cc2cc(OC)cc(OC)c2)cc1	1.18
CC1CCN(Cc2c(O)ccc3c(=O)c(-c4ccc(Cl)cc4)c(C(F)(F)F)oc23)CC1	-2.42
CCc1ccc(Cn2nnc3c(=O)[nH]c(C4CCCN(C(=O)c5cccc(Cl)c5)C4)nc32)cc1 (stereo not drawn)	-1.59
CCC1CCCCN1CCCNC(=O)c1c(O)nc2c(C)cccn2c1=O (stereo not drawn)	-1.21
COc1ccc(Nc2ncc(C(=O)N3CCN(c4ccccc4OC)CC3)c3ccccc23)cc1	-0.19
NC(=O)c1ccc(CNC(=O)N2CCC3(CCCCCC3)C2)cc1	1.1
N#CC1=C2SCN(C3CCCCC3)CN2C(=O)CC1c1ccc(Br)cc1 (stereo not drawn)	0.03
O=C(Cn1ncc2ccccc21)Nc1cccc(NC(=O)c2cccnc2)c1	0.05
Cc1noc(C)c1S(=O)(=O)N(CC(=O)NCc1ccccc1)c1ccc(C(C)C)cc1	-1.66
Cc1nc(C2CCN(S(=O)(=O)CCC3CCS(=O)(=O)C3)CC2)no1 (stereo not drawn)	0.66
CCOC(=O)c1ccccc1NC(=O)CSc1nc2ccncc2[nH]1	-0.99

An excerpt from above in order of number of heavy atoms, smallest number first.
SMILES	fixLJ activator
NC(=O)c1ccc(CNC(=O)N2CCC3(CCCCCC3)C2)cc1	1.1
CCOC(=O)c1ccccc1NC(=O)CSc1nc2ccncc2[nH]1	-0.99
O=C(Cn1ncc2ccccc21)Nc1cccc(NC(=O)c2cccnc2)c1	0.05

Further records
SMILES	fixLJ activator
CCC1CCc2c(sc(NC(=O)C3c4ccccc4Oc4ccccc43)c2C(=O)OC)C1 (stereo not drawn)	-1.18
CCc1cc(=O)oc2c3c(c(Cl)cc12)OCN(Cc1cccc(OC)c1)C3	-0.87
CC1(C)CC1C(=O)NC1CCN(C2CCS(=O)(=O)CC2)CC1 (stereo not drawn)	-3.5
NC(=O)C1CCCN(C(=O)c2cccc(-c3cnn4ccccc34)c2)C1 (stereo not drawn)	-0.13
COc1ccc(C2(C(=O)Nc3ccc(CC(=O)NC4CC4)cc3)CC2(C)C)cc1 (stereo not drawn)	-0.33
Cc1cc(C)c(NC(=O)Cn2c(=O)n(CCCCC(=O)NCc3ccccc3Cl)c(=O)c3ccccc32)c(C)c1	-2.64
Cc1cc(C)cc(NC(=O)Cn2nnc(C(=O)NCCc3ccccc3)c2N)c1	-1.98
COc1ccc(CNC(=O)CCc2c(C)nc3cc(-c4ccc(OC)cc4OC)nn3c2C)cc1	-1.64
O=C(CCC1N=C2c3ccccc3N=C(SCC(=O)Nc3ccccc3F)N2C1=O)NCc1ccco1 (stereo not drawn)	-1.76
Cc1ccc2c(c1)C(=O)C(=O)N2Cc1ccc(OC(C)C)cc1	-1.2

Quoted at random: three records from the list.
SMILES	fixLJ activator
COc1ccc(-n2c(=O)c3c4c(sc3n(Cc3cc(C)ccc3C)c2=O)CN(C(C)=O)CC4)c(OC)c1	-0.46
CCC1CCc2c(sc(NC(=O)C3c4ccccc4Oc4ccccc43)c2C(=O)OC)C1 (stereo not drawn)	-1.18
CC(=O)c1cccc(-n2c(CCC(=O)O)ccc2-c2ccccc2)c1	0.41

(more compounds)
SMILES	fixLJ activator
CCCCNC(=O)CN(C)C(=O)c1csc2nc(-c3ccc(F)cc3)cn12	0.82
Cc1ccsc1C1CCN(C(=O)c2cn3ccsc3n2)CC1O (stereo not drawn)	-1.24
Cc1cccc(N2CCN(C(=O)CN3C(=O)COc4ccc(S(=O)(=O)N5CCOCC5)cc43)CC2)c1C	0.2
CCOc1ccc(NC(=O)Cn2c(=O)n(CCCCC(=O)NCc3ccc4c(c3)OCO4)c(=O)c3ccccc32)cc1	-1.31
CCC1CCCCN1CCCNC(=O)c1cc2c(=O)n(CC)c3ccccc3c2s1 (stereo not drawn)	-0.47
CCOc1ccc(N2CC(c3nc4ccccc4n3CC(C)C)CC2=O)cc1 (stereo not drawn)	-3.26
Cn1c(=O)c(=O)n(C)c2cc(NS(=O)(=O)c3ccc(Br)cc3)c(Cl)cc21	-0.78
CCCCNC(=O)CCn1c(=O)c2ccccc2n(Cc2cccc(Cl)c2)c1=O	-1.69
COc1ccc(F)c(-c2nc(CN(C)CC3(CO)CCC3)c(C)o2)c1	-0.72
Cc1ccc2nc(-c3ccsc3)c(Nc3ccccc3C)n2c1	-0.15
COCCCN1CC2(CCCN(c3ncnc4c3CCC4)C2)CCC1=O (stereo not drawn)	-0.76
CCOc1ccc(-n2nc(CO)c(C(=O)NCc3ccccn3)n2)cc1	-0.06
COC[C@@]12CCC(N3CCOCC3)CC1CCN(CCn1cc[nH]c1=O)C2 (stereo partly drawn)	0.17
Cc1ccccc1Nc1c(-c2ccncc2)nc2ccc(Cl)cn12	0.71
COCCNC(=O)CSc1nc(-c2ccccc2)[nH]c1-c1ccc(C)cc1	-0.9
COc1ccc(-n2c(=O)c3ccccc3n(Cc3ccccc3Cl)c2=O)cc1	0.78
COCCNC(=O)C(=O)Nc1ccc2nc3n(c(=O)c2c1)CCCCC3	-1.03
CCc1nc2ccccc2n1CCCCOc1cccc(C)c1	-1.47
CCOc1cccc(CC(=O)NCc2ccc3c(c2)CCN3C(=O)c2cccc(C)c2)c1OCC	-0.5
COC(=O)c1ccccc1NC(=O)CCCS(=O)(=O)c1nc(-c2ccccc2OC)cc(C(F)(F)F)n1	-0.15
CC(=O)c1cccc(NC(=O)c2cc3c(s2)-c2c(C)cccc2OC3)c1	-2.62
Cc1ccc(Cn2c(=O)n(CCc3ccccc3)c(=O)c3sc4ccccc4c32)cc1	-0.48
CC1=C(/C=C/C(C)=C/C=C/C(C)=C/CO)C(C)(C)CCC1	1.11
O=C(Nc1c(C(=O)Nc2ccc(F)cc2)oc2ccccc12)c1cc2ccccc2o1	-0.32
COC(=O)C1CC(NC(=O)Cc2ccc(OC)c(C)c2)CN1C (stereo not drawn)	-1.22
Cc1cc(C)c2oc(C(=O)Nc3ccc(S(=O)(=O)Nc4ncccn4)cc3)cc(=O)c2c1	-2.2
Cc1ccc(C)c(OCCn2c(CCNC(=O)C3CCCCC3)nc3ccccc32)c1	-1.31
COc1ncccc1C(=O)N1CC2CCC1CN(C(=O)C1CCC1)C2 (stereo not drawn)	0.21
CCOC(=O)c1c(NC(=O)CSc2cn(CCNC(=O)c3ccccc3F)c3ccccc23)sc2c1CCC2	-0.98
CCc1ncc(C(=O)N(Cc2ccccn2)Cc2ccc(C)s2)cn1	0.15
Cc1nn(C)c2nc(-c3ccncc3)nc(N(C)CCCC3CCCO3)c12 (stereo not drawn)	-1.52
COc1ccc(-c2nc(-c3ccccc3)c(-c3ccc(F)cc3)[nH]2)c(OC)c1C	1.32
COc1ccccc1CNC(=O)c1cccc(Nc2nc3ccccc3n3nnnc23)c1	0.52
CCOc1ccc(NC(=O)c2oc3ccccc3c2NC(=O)COc2cccc(OC)c2)cc1	-0.8
COc1ccc(CSc2nc3ccncc3n2CC(=O)Nc2ccc(C)c(F)c2)cc1	-0.8
COCCNC(=O)CCn1c(=O)c2cc(OC)c(OC)cc2n(CC(=O)Nc2ccc(F)c(Cl)c2)c1=O	-1
COCCn1cnnc1CCn1ccnc1-c1ccc(CC(F)(F)F)cc1	-0.94
Cn1c(NCCN(CCO)CCCc2ccc([N+](=O)[O-])cc2)cc(=O)n(C)c1=O	-2.17
COC(=O)c1n[nH]n(-c2ccccc2)c1=O	-1.47
Cc1cccc(C)c1NC(=O)CCS(=O)(=O)c1ccc2c(c1)n(C)c(=O)c(=O)n2C	-1.19
Clc1ccccc1C(c1ccccc1)(c1ccccc1)n1ccnc1	-1.04
CCc1ccc2occ(CC(=O)Nc3c(C(=O)Nc4ccc(OC)cc4)oc4ccccc34)c2c1	-0.62
CNc1nc(-c2nc(CC(N)=O)nn2-c2cccc3c2CCC3)cs1	-0.19
CC[C@@]1(O)CCCC2CN(C(=O)c3cc4c([nH]c3=O)CCCC4)CC21 (stereo partly drawn)	-0.45
COc1ccccc1N(Cc1cc2cccc(C)c2[nH]c1=O)C(=O)c1cccc(Cl)c1	0.27
CCCc1nc(CNc2ccc(C(=O)N3CCOCC3)cn2)cs1	-1.03
CCCCN1C(=O)C(O)(CC(=O)c2ccc(C(C)(C)C)cc2)c2ccccc21 (stereo not drawn)	1.92
CC(C)(C)C(=O)N1CCc2ccc(S(=O)(=O)N3CCCC3)cc2C1	-1.01
Cc1sc(-c2cc(C(F)(F)F)[nH]n2)cc1S(=O)(=O)NCCc1cnc[nH]1	-1.52
Cc1ccc(C2(O)CCN(C(=O)CCCCc3ccccc3)CC2)nc1	-2.66
The results go on:
SMILES	fixLJ activator
CCOc1ccc(NC(=O)Cn2c(=O)n(Cc3ccc4c(c3)OCO4)c(=O)c3ccc(C(=O)NC4CCCCC4)cc32)cc1	-0.75
CCOc1ccc(NC(=O)c2ccc3c(SCC(=O)O)c4c(nc3c2)CCC4)cc1	0.02
COc1cc(C)ccc1OCCN1CCC(O)[C@@](CC2CC2)(C(=O)O)C1 (stereo partly drawn)	-1.28
Cc1cc(C)c(NC(=O)Cn2c(=O)n(CC(=O)NCc3ccccc3Cl)c(=O)c3sccc32)c(C)c1	-0.27
CCOC(=O)Cc1c(C)nc2c(-c3ccc(Cl)cc3)c(C(F)(F)F)nn2c1C	-1.27
CNC[C@H](O)[C@@H](O)[C@H](O)[C@H](O)CO	-1.37
COc1ccc(CNc2nc3c(c(=O)n(C)c(=O)n3C)n2Cc2ccccc2Cl)cc1	-2.25
Cc1nonc1CN1CCC(Oc2cccc(Cl)c2)CC1	-0.03
C=CCN(Cc1ccccn1)c1cc(C2CCNCC2)ncn1	-1.15
COc1ccc(C(=O)n2nc(-c3ccco3)nc2NCc2cccs2)cc1	0.92

In a second layout: two of the compounds above
| mol | fixLJ activator |
| --- | --- |
| C=CCN(Cc1ccccn1)c1cc(C2CCNCC2)ncn1 | -1.15 |
| COc1ccc(C(=O)n2nc(-c3ccco3)nc2NCc2cccs2)cc1 | 0.92 |

(listing goes on)
SMILES	fixLJ activator
COC(=O)c1c(NC(=O)/C(C#N)=C/c2ccccc2)sc2c1C(C(=O)OC)CC2 (stereo not drawn)	-1.19
CC(C)CC(O)C1CCN(C(=O)c2cc3c([nH]c2=O)CCC3)CC1 (stereo not drawn)	-1.37
NC(Cc1ccccc1)c1nc(CC2CC2)nn1CC(=O)NC1CCNC1 (stereo not drawn)	-0.09
Cc1nc2c(-c3ccccc3)c(C)nn2c(C)c1CCC(=O)NCc1ccccc1	-0.32
CCC(=O)NCC[C@@H]1CCc2ccc3c(c21)CCO3	-1.15
Cc1cc(NC(=O)c2cccnc2)cc(-c2nc3cc(Cl)ccc3o2)c1O	-0.75
COc1ccc(-c2nc3ccccc3n3c(-c4cccc(C)c4)c4c(=O)n(C)c(=O)n(C)c4c23)cc1OC	-1.38
COc1ccccc1C(=O)Nc1cc2c(cc1N1CCCCC1)n(C)c(=O)n2C	-1.24
CCOc1ccc(Cn2nnc(C(=O)Nc3ccc(Cl)cc3)c2N)cc1	-0.27
Cc1ccc(C2C=C(c3ccccc3)Nc3nc(NS(C)(=O)=O)nn32)cc1 (stereo not drawn)	-1.54
Cc1ccc(Nc2sc(C(=O)c3ccccc3)c(N)c2S(=O)(=O)c2ccccc2)cc1Cl	-0.25
O=C(CSc1nc2ncccc2[nH]1)Nc1cc(F)ccc1F	-0.89
O=C(NC1CCc2ccccc2C1)N1CCN(C(=O)c2cccs2)CC1 (stereo not drawn)	1.19
Cc1ccc(C(=O)N(Cc2ccco2)Cc2sccc2C)cc1	0.23
COCC(=O)N1CCc2cc(OC)c(OC)cc2C1COc1ccc2c(C)cc(=O)oc2c1 (stereo not drawn)	1.19
